Source: PubChem BioAssay (National Center for Advancing Translational Sciences (NCATS))
VDR inh – Inhibitors of the vitamin D receptor (VDR): qHTS | Vitamin D3 receptor (Homo sapiens), P11473 | VDR-SRC2-3 peptide fluorescence polarization, 2 h | Potency, µM, inactives show max response, negative = inhibition, hits mostly inhibitors | actives 0.93% (n = 400,000); active = well fitted inhibition curve with a large enough effect; inconclusive = small, poorly fitted or top-dose-only effect, or another doubt; inactive = no such curve, though single readings can be large or run the other way; note: series mostly up to about 120 µM
Target sequence (P11473 whole entry, looked up): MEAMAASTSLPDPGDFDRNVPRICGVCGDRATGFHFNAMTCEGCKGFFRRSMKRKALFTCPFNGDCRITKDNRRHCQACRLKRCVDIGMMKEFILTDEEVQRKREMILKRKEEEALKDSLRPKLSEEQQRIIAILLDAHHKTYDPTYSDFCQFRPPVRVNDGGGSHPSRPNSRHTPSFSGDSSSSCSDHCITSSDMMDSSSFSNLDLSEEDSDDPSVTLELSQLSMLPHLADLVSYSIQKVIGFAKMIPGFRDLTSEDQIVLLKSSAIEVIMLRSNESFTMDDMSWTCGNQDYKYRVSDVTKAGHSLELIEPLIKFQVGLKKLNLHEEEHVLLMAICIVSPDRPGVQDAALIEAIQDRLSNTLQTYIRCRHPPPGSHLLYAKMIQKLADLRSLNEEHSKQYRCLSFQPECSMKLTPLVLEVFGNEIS
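Fluorescence polarization assay measuring small-molecule disruption of VDR binding to the coregulator peptide SRC2-3. Compounds were pin-transferred (23 nl) into the reagent mix and incubated 2 h at room temperature before reading.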
* = called active by the depositor; u = inconclusive; & = joins results of further samples; [ ] = another dose, or the depositor's remark. % is set by controls: 0 for no effect and ±100 for the full control effect; potency is the fitted concentration of half-maximal effect.

SMILES	VDR inh
O=C(COC(=O)[C@H](Cc1ccccc1)NC(=O)c1cccs1)NC1CCCCC1	-21%
COc1ccc2[nH]c(=O)c(CN(CCO)S(=O)(=O)c3ccc4c(c3)OCCO4)cc2c1	-1%
COc1ccccc1NC(=O)CSc1n[nH]c(Cc2ccccc2)n1	1%
COc1ccc2c(=O)c(-c3ccccc3C)c(C)oc2c1	-14%
O=C(CSc1nnc2ccc(-c3cccnc3)nn12)Nc1ccccc1F	4%
O=C(NCCc1csc(-c2ccccc2)n1)c1cccs1	-8%
COc1cc(/C=C2\N=C(C)OC2=O)cc(Cl)c1OC(C)=O	u
O=C(CC1C(=O)NCCN1CC(c1ccccc1)c1ccccc1)NCCc1cn[nH]c1 (stereo not drawn)	8%
COc1ccccc1CNC(=O)C1Cc2ccccc2C(=O)O1 (stereo not drawn)	-5%
COc1ccc2cnn(-c3ccccc3C)c(=O)c2c1OC	-2%
CCc1ccc([C@@H]2CC=C(C(=O)O)[C@H](c3ccc(C(C)(C)C)cc3)N2S(=O)(=O)c2ccc(C)cc2)cc1	-24%
Cc1ccc(NC(=O)CSc2nc3ccc(NC(=O)c4ccco4)cc3s2)cc1	5%
CCOC(=O)C1CCCC(NS(=O)(=O)c2ccc(NC(C)=O)cc2)C1 (stereo not drawn)	3%
CCN(C[C@H]1N[C@@](CC)(C(=O)OC)[C@H]2C(=O)N(Cc3ccccc3)C(=O)[C@@H]12)C(=O)C1CCCCC1	-11%
O=C(c1cccc(S(=O)(=O)N2CCOCC2)c1)N1CCC(Cc2ccccc2)CC1	-5%
CCOC(=O)c1cc(-c2ccccc2)n(-c2cccc(C(=O)N(C)c3ccc(C)cc3)c2)c1C	4%
O=C(Cc1ccccc1)Nc1ccc(N2CCCC2)cc1	-2%
CCOC(=O)c1c(-c2ccccc2)oc2ccc(OCc3cccc(Br)c3)cc12	-7%
COc1ccc(S(=O)(=O)NCc2ccc(C(=O)NCc3ccccc3)cc2)cc1	-6%
S=C1NC2=C(CCCC2)C2(CCCCC2)N1	-17%
CCS(=O)(=O)N1Cc2ccccc2CC1C(=O)Nc1nc2c(C)cccc2s1 (stereo not drawn)	9%
COc1ccc(CNCc2ccncc2)cc1OC	-17%
COc1cccc(NC(=O)CC2Oc3ccccc3NC2=O)c1 (stereo not drawn)	-8%&-20%
O=C(COc1coc(CN2CCN(c3ccc(F)cc3)CC2)cc1=O)NC1CCCCC1	-18%
COc1cccc(Nc2nc3ccc(C)cc3nc2-n2nc(C)cc2C)c1	-25%
CCOC(=O)C1=C(C)OC(N)=C(C#N)C1c1cc(SCC)oc1C (stereo not drawn)	u
COC(=O)CSc1nc2[nH]ncc2c(=O)[nH]1	4%
O=C(O)c1ccccc1N(c1ccccc1)c1ccccc1	35µM*
O=[N+]([O-])c1ccc(F)cc1OCc1nc(-c2cccs2)no1	7%
CN(CC(=O)Nc1ccccc1Cl)C1CCCCC1	-2%
CCOC(=O)C1C/C(=C\C(C)=O)c2cccc(C(F)(F)F)c2O1 (stereo not drawn)	-4%
O=C(CCc1ccccc1)Nc1ccc(S(=O)(=O)N2CCOCC2)cc1	23%
CCc1cccc(C)c1NC(=O)CN1C(=O)c2ccccc2S1(=O)=O	-9%
CCOC(=O)c1nnsc1Nc1ccc(C)c(C)c1	-27%
c1ccc(CSc2ncnc3sccc23)cc1	13%
COC(=O)c1scc(-c2ccc(C)cc2)c1S(=O)(=O)Nc1c(C)cc(C)cc1C	9%

4 entries from above, set out differently.
COc1cccc(Nc2nc3ccc(C)cc3nc2-n2nc(C)cc2C)c1
  VDR inh = -25%
c1ccc(CSc2ncnc3sccc23)cc1
  VDR inh = 13%
CCOC(=O)C1C/C(=C\C(C)=O)c2cccc(C(F)(F)F)c2O1 (stereo not drawn)
  VDR inh = -4%
COC(=O)CSc1nc2[nH]ncc2c(=O)[nH]1
  VDR inh = 4%

(further entries)
SMILES	VDR inh
CCCS(=O)(=O)c1nc(S(=O)(=O)c2ccc(C)cc2)c(NCCN2CCOCC2)s1	4%
COc1cccc(CC(=O)Nc2ccc(-c3nc4ccccc4s3)cc2)c1	13%
O=C(CC(C(=O)O)c1cccc(Cl)c1Cl)c1ccccc1 (stereo not drawn)	-25%
CSc1cccc(Nc2cc(C(=O)NCCc3ccc(Cl)cc3)c3ccccc3n2)c1	-5%
COc1ccc(/C=C(/NC(=O)c2ccccc2)C(=O)N2CCCCC2)cc1OC	-11%
O=C(CNC(=O)c1ccccc1F)N/N=C/c1ccco1	12%
Cc1ccc(-c2nc3cc(C(C)C)ccc3o2)cc1NC(=O)c1cc2ccccc2o1	-9%
CCSc1ncc(Cl)c(C(=O)Nc2nnc(CC)s2)n1	2%
CN1/C(=C/C(=O)c2nc(S(C)(=O)=O)ncc2Cl)C(C)(C)c2ccccc21	50µM*
Cc1ccc(C(C(=O)NC2CCCC2)N(C(=O)c2csnn2)C2CCCC2)o1 (stereo not drawn)	-1%
Cc1c(C(=O)OC(C)C)sc(NC(=O)C2c3ccccc3Oc3ccccc32)c1C(=O)OC(C)C	-17%
Cc1cc(C)cc(NC(=O)C(Cc2ccccc2)NS(=O)(=O)c2ccc3c(c2)c(=O)n(C)c(=O)n3C)c1 (stereo not drawn)	-16%

Three entries from above, arranged by their value in VDR inh, high to low.
Compound	VDR inh
COc1cccc(CC(=O)Nc2ccc(-c3nc4ccccc4s3)cc2)c1	13%
COc1ccc(/C=C(/NC(=O)c2ccccc2)C(=O)N2CCCCC2)cc1OC	-11%
Cc1c(C(=O)OC(C)C)sc(NC(=O)C2c3ccccc3Oc3ccccc32)c1C(=O)OC(C)C	-17%

Additional structures follow:
SMILES	VDR inh
O=C(CSc1ccc(Cl)cc1)NC(=O)NC1CCCC1	-16%
COc1ccc(NC(=O)COC(=O)C2=COCCO2)cc1OC	12%
CCC(C)[C@@H](CN(N=O)[C@@H](Cc1ccccc1)CN(C)N=O)N(CCc1ccccc1)N=O (stereo partly drawn)	u
COP(=O)(OC)c1nc(-c2cccc3ccccc23)oc1N1CCCCC1	-10%
CCN(c1ccccc1)S(=O)(=O)c1ccc(Cl)c(NC(=O)c2ccc(=O)[nH]n2)c1	3%
COc1cccc(NS(=O)(=O)c2ccc3c(c2)N(C(C)=O)CCS3)c1	-8%
COc1ccc(C(=O)N/N=C/c2ccc(N3CCOCC3)o2)cc1OC	u
N[C@@H](C(=O)O)[C@@H](CC(=O)O)c1ccc(Cl)cc1	3%
CN(C)c1ccc(/C=N\Nc2nc(-c3ccccc3)cc(=O)[nH]2)cc1	-25%
Cn1c(=O)c2c(nc(CN3CCC(C(N)=O)CC3)n2Cc2c(Cl)cccc2Cl)n(C)c1=O	-15%
OCCN(CCO)Cc1csc2ccccc12	0%
NC(=O)c1ccsc1NC(=O)COC(=O)c1ccccc1F	11%
Cn1cccc1C(=O)N1CCC[C@@]2(CCN(Cc3ccccc3)C2)C1	u
CCN(CC)c1ccc(NC(=O)c2sc3nc(-c4ccccc4)cn3c2C)cc1	-4%
Cc1cccc(C)c1NC(=O)CN(C)CC(=O)Nc1cc(Cl)ccc1C#N	3%
Cc1cccc(NC(=O)c2nc[nH]c2C(=O)NCC(=O)OC(C)(C)C)c1	2%
CCOC(=O)c1cc2c(ccn2C)n1CC(=O)N(CC)CC	3%
O=C(CSc1nc(-c2cccs2)nc2cc(=O)[nH]n12)Nc1cccc(C(F)(F)F)c1	-6%
COCCN(CCOC)S(=O)(=O)c1ccc(C(=O)NCCCN2CCOCC2)cc1	-4%
CCOc1ccccc1/C=N\Nc1cnn(Cc2ccccc2)c(=O)c1Cl	0%
COCCN(C(=O)CSc1cc(C)c2ccccc2n1)c1c(N)n(CC(C)C)c(=O)[nH]c1=O	-27%
Cc1cc(OCCCn2ccnc2)cc(C(C)C)c1	-5%
COc1ccc(C(C)NC(=S)NC2CCCCC2)cc1OC (stereo not drawn)	13%
COc1cc(/C=N/NC(=O)NC2CCCCC2)ccc1O	-11%
CCN(CC)S(=O)(=O)c1cc(NC(=O)COC(=O)c2c(C)noc2C)ccc1C	32%[activator]
O=[N+]([O-])c1ccc2nonc2c1Nc1ccccc1	-18%
COc1ccc(C(=O)COC(=O)CCCC(=O)NC2CCCCC2)cc1	-14%
Cc1ccsc1/C=N/NC(=S)NCc1ccccc1	-13%
COc1cc(NC(=O)NCC2CCN(Cc3ccccc3F)CC2)cc(OC)c1	-3%
CCCc1cc(C(=O)N2CCCC(CO)(CCCc3ccccc3)C2)n(C)n1 (stereo not drawn)	-3%
CCOC(=O)N1CCc2c(sc(NCc3sccc3C)c2C(=O)Nc2cc(OC)ccc2OC)C1	-17%
Cc1ccc(OCCC(=O)OCC(=O)Nc2ccc3c(c2)OCO3)cc1	0%
Cc1onc(-c2c(Cl)cccc2Cl)c1C(=O)NNC(=O)c1c(-c2c(Cl)cccc2Cl)noc1C	-18%
COc1ccc(NC(=O)Cn2c(=O)n(-c3cccc(C(F)(F)F)c3)c(=O)c3sccc32)cc1	-19%
CC1(c2ccc(OC(F)F)cc2)NC(=O)N(CC(=O)N2CCN(C(=O)c3ccco3)CC2)C1=O (stereo not drawn)	-11%
CC(=O)NNC(=O)c1ccncc1	11%
COc1ccc(/C=C/C(=O)Nc2cccc(S(=O)(=O)NC3=NCCCCC3)c2)c(OC)c1	-8%
Cc1ccc(NC(=O)C2CCCN2C(=O)OCc2ccccc2)cc1F (stereo not drawn)	-18%
CCOCCc1nnc(NC(=O)c2cccs2)s1	7%
CSc1nsc(SC)c1C(=O)N1CCN(S(=O)(=O)c2ccc(C)cc2)C1C (stereo not drawn)	2%
Cc1cccc(NC(=O)CSc2nnc(CNC(=O)c3ccc(S(=O)(=O)N(C)C)cc3)n2-c2ccc(F)cc2)c1	-12%
CCOc1ccc(S(=O)(=O)NCCC(=O)N2CCN(c3ccccc3O)CC2)cc1	-28%
CC(C)c1onc(C(=O)N2CCCCC2)c1[N+](=O)[O-]	-13%
CCn1cc(C2=NC(C(C)C)CO2)c2ccccc21 (stereo not drawn)	-1%
COc1cc(NC(=O)Cn2cnc(S(=O)(=O)N3CCCC3)c2)cc(OC)c1OC	-23%&7%
CC1(S(=O)(=O)O)CC(=O)c2ccccc2C1=O (stereo not drawn)	-18%
O=[N+]([O-])c1ccc(N/N=C\c2cccn2-c2ccccc2)nc1	-2%
Cc1ccc(N(C(C)C(=O)N2CCN(Cc3ccccc3)CC2)S(C)(=O)=O)cc1 (stereo not drawn)	-2%
Cc1nc(C)c(C(=O)OC(C)C(=O)Nc2ccc(F)cc2)s1 (stereo not drawn)	0%
COc1ccc(CCNC(=O)c2ccc(N(C)S(=O)(=O)c3ccc(C)cc3)cc2)cc1OC	-7%
O=C(NCCCN1CCOCC1)c1cc(S(=O)(=O)N2CCN(c3ccccc3)CC2)ccc1Cl	7%
Cc1ccccc1CNC(=O)c1sc2ncnc(N(C)C3CCCCC3)c2c1C	16%
COc1cc(OC)c(C(=O)NNC(=O)CN(C)S(=O)(=O)c2ccc(Cl)cc2)cc1OC	-13%
COc1ccc(OC)c(CN2CCN(C(=O)CNC(=O)c3cc(C)cc(C)c3)CC2)c1	2%
Cc1noc(C(=O)N2CCN(Cc3ccc4c(c3)OCO4)CC2)c1Cl	0%
Cc1cccc(C)c1OCc1nnc(NC(=O)CSc2ccc(Cl)cc2)s1	4%
c1coc(-c2ccnc(-c3ccncc3)n2)c1	-4%
COc1ccc(C(=O)NCC(=O)N2CCN(c3ccc(Cl)cc3)CC2)cc1	6%
Cc1ccc(-n2c(SCC(N)=O)nc(O)cc2=O)cc1	0%
CC1CCCCN1Cc1nc2c(c(=O)n(C)c(=O)n2C)n1CCc1ccccc1 (stereo not drawn)	19%

VDR inh: hit marks shown above.
SMILES	VDR inh
O=C(O)c1ccccc1N(c1ccccc1)c1ccccc1	35µM*
CN1/C(=C/C(=O)c2nc(S(C)(=O)=O)ncc2Cl)C(C)(C)c2ccccc21	50µM*

The list goes on.
SMILES	VDR inh
Cc1nc(Nc2nc3c(c(=O)[nH]2)CCC3)nc2ccccc12	13%
Nc1ccc(S(=O)(=O)Nc2ccc(Cl)nn2)cc1	u
CC(=O)Nc1ccc(OCC(O)CN2CCN(c3ccc(Cl)cc3)CC2)cc1 (stereo not drawn)	-12%
Cc1ccc(-c2noc(CCC(=O)NC3CCCc4ccccc43)n2)cc1 (stereo not drawn)	-9%
Cc1ccc(C(=O)NCc2ccco2)c(C)c1	-6%
COc1cccc(NC(=O)C(=O)NCCC2CCCCN2S(=O)(=O)c2cccs2)c1 (stereo not drawn)	-18%
CCOC(=O)Cc1nnc(NC(=O)CSc2nc3ccccc3[nH]2)s1	0%
CCN(CC(=O)N(CC(C)C)c1c(N)n(CC(C)C)c(=O)[nH]c1=O)Cc1nc2ccccc2c(=O)[nH]1	-19%
Cc1ccc(C(C)C)c(OCCCN(C)Cc2ccccc2)c1	-10%
COc1cccc(/C=C/C(=C2\C(=O)N(c3ccccc3)N=C2C)c2ccc(Br)cc2)c1OC	-14%
O=S(=O)(NCc1ccncc1)c1ccc(Br)s1	-8%
Cc1ccc(Nc2nc(N)nc(CSc3nnc(C)s3)n2)cc1	-12%
CN1CCN(S(=O)(=O)c2csc(C(N)=O)c2)CC1	13%
O=C(CCc1nnc2ccc(NCc3ccccc3Cl)nn12)NCC1CCN(C2CCCC2)C1 (stereo not drawn)	-1%
C=CCCC(=O)NC1CC(C)(C)Cc2c1cnn2-c1cccc(F)c1 (stereo not drawn)	-24%
Cc1c(Cl)cccc1NC(=O)NC1CCCCC1	22%
CC(=O)NCc1nnc2c3ccccc3c(-c3ccccc3)nn12	13%
CCOC(=O)c1cc2sccc2n1CC(=O)Nc1ccc2c(c1)OCCO2	-4%

Some of the compounds tested; rates above refer to the full screens.
